H5N1 antiviral: antiviral screen in MDCK cells, H5N1 avian flu; cytopathic effect, luminescence, 72 h; stronger effect = higher value; no value below 0 was filed and about half of the inactive calls have no number; reference of the scale not given here; inhibition, % at 50 µM; 0.07% of 96,000 active; in the data active = inhibition above about 25%
* hit, by the source's call. Some of the compounds tested, so the mix of outcomes need not match the whole.

O=C1CC(c2ccccc2)CCc2sccc2N1 (stereo not drawn) was read as H5N1 antiviral 2.5.
`CC(C)c1nc(SCC(=O)N2c3ccccc3CC2C)c2ccccc2n1` (stereo not drawn) gave H5N1 antiviral 0.3.
O=S(=O)(Nc1ccc(N2CCOCC2)nn1)c1ccccc1 was read as H5N1 antiviral 0.6.
`Cc1nc2cc(C(=O)N3CCC4(CC3)OCCO4)ccc2n1-c1cccc(F)c1` gave H5N1 antiviral 0.6.
For COC(=O)c1ccccc1NC(=S)NC(NC(=O)c1ccccc1[N+](=O)[O-])C(Cl)(Cl)Cl (stereo not drawn) the results were H5N1 antiviral inactive.
Screening Cc1ccc(C)c(NC(=O)C2C(c3ccccc3)C2(Cl)Cl)c1 (stereo not drawn) returned H5N1 antiviral inactive.
`Cc1nc(SCCC(=O)O)c2ccccc2n1` gave H5N1 antiviral 0.0.
`Cc1ccc(C)c(NC2=C(Cl)C(=O)OC2OC(=O)c2ccco2)c1` (stereo not drawn) gave H5N1 antiviral 0.1.
`CCCc1noc(-c2ccc(-c3ccccc3)cc2)n1` gave H5N1 antiviral inactive.
CCn1c(Cc2ccccc2)nnc1SCC(=O)Nc1nc2ccccc2s1 was read as H5N1 antiviral 0.5.
`Cc1cc(C)nc(N2CCC(C(=O)NCC3CCCCC3)CC2)n1` gave H5N1 antiviral inactive.
CC1(c2ccccc2)NC(=O)N(CC(=O)NCCC2=CCCCC2)C1=O (stereo not drawn) was read as H5N1 antiviral 1.8.
`COC(=O)C(C)Sc1ccc2nnc(-c3cccc(F)c3)n2n1` (stereo not drawn) gave H5N1 antiviral 0.0.
For c1ccc(-c2cnn3nnnc3n2)cc1 the results were H5N1 antiviral 0.0.
CCCC(=O)NCCc1cc2c(C)ccc(C)c2[nH]c1=O was read as H5N1 antiviral 0.5.
`Cc1ccc(C)c(-n2c(N)c(C(N)=O)sc2=S)c1` gave H5N1 antiviral inactive.
`CC(C)(C)n1nnnc1C(c1cccs1)N(Cc1cccnc1)Cc1ccccc1Cl` (stereo not drawn) gave H5N1 antiviral 0.1.
Screening CCn1cc(CNC(=O)C2C3CCC(C3)C2C(=O)O)cn1 (stereo not drawn) returned H5N1 antiviral inactive.
For CC(=O)Nc1cccc(C(=O)NC(C)c2ccc(S(N)(=O)=O)cc2)c1 (stereo not drawn) the results were H5N1 antiviral 0.6.
For Cc1ccc2cc(CN(CCN3CCOCC3)Cc3nnnn3Cc3ccco3)c(=O)[nH]c2c1C the results were H5N1 antiviral inactive.
`CCC(=O)c1c[nH]c(C(=O)NCCCN2CCOCC2)c1` gave H5N1 antiviral 0.6.
Cc1nnc(SCc2nnc(-c3ccccc3Br)o2)n1-c1ccccc1 was read as H5N1 antiviral 1.2.
For CC1CCC(NC(=O)C2CCC(CNS(=O)(=O)c3cccc4nsnc34)CC2)CC1 (stereo not drawn) the results were H5N1 antiviral inactive.
For Cn1nc(C(F)(F)F)c(C(=O)Nc2ccc(F)cc2F)c1Sc1ccc(C(F)(F)F)cc1 the results were H5N1 antiviral inactive.
Cc1cccc(OCCNC(=O)c2ncn[nH]2)c1 was read as H5N1 antiviral 0.5.
COc1ccc(-c2noc(CCC(=O)N(C)c3cccc(C)c3)n2)cc1 was read as H5N1 antiviral inactive.
Screening O=C(CSc1nnc(Cc2ccccc2)o1)NCCc1ccccc1 returned H5N1 antiviral inactive.
Cc1ccc2[nH]c3c(c2c1)CN(C(=O)CN1CCN(c2ccccn2)CC1)CC3 was read as H5N1 antiviral inactive.
N/C(=N\OC(=O)CCc1ccccc1)c1ccc(Cl)cc1 was read as H5N1 antiviral inactive.
CCCc1nc2ccccc2n1CCOC was read as H5N1 antiviral 0.7.

Six entries out of the list, ordered by molar mass, descending:
`CC(C)c1nc(SCC(=O)N2c3ccccc3CC2C)c2ccccc2n1` (stereo not drawn) gave H5N1 antiviral 0.3.
For CC(=O)Nc1cccc(C(=O)NC(C)c2ccc(S(N)(=O)=O)cc2)c1 (stereo not drawn) the results were H5N1 antiviral 0.6.
`Cc1ccc(C)c(NC2=C(Cl)C(=O)OC2OC(=O)c2ccco2)c1` (stereo not drawn) gave H5N1 antiviral 0.1.
O=S(=O)(Nc1ccc(N2CCOCC2)nn1)c1ccccc1 was read as H5N1 antiviral 0.6.
`CCC(=O)c1c[nH]c(C(=O)NCCCN2CCOCC2)c1` gave H5N1 antiviral 0.6.
CCCC(=O)NCCc1cc2c(C)ccc(C)c2[nH]c1=O was read as H5N1 antiviral 0.5.

Returning to the listing, repeating the four entries before the break.
Screening O=C(CSc1nnc(Cc2ccccc2)o1)NCCc1ccccc1 returned H5N1 antiviral inactive.
Cc1ccc2[nH]c3c(c2c1)CN(C(=O)CN1CCN(c2ccccn2)CC1)CC3 was read as H5N1 antiviral inactive.
N/C(=N\OC(=O)CCc1ccccc1)c1ccc(Cl)cc1 was read as H5N1 antiviral inactive.
CCCc1nc2ccccc2n1CCOC was read as H5N1 antiviral 0.7.
`Cc1cc2oc(=O)cc(CN3CCN(Cc4ccccc4)CC3)c2cc1Cl` gave H5N1 antiviral inactive.
`O=C(N1CCOCC1)N1CCN(c2ccccc2)CC1` gave H5N1 antiviral inactive.
For CCC(=O)N1CCN(c2ccc(NC(=O)COc3ccccc3Cl)cc2)CC1 the results were H5N1 antiviral inactive.
For COc1ccc(C)cc1NC(=O)c1[nH]c(C)c(C(C)=O)c1C the results were H5N1 antiviral inactive.
Screening Cc1cc(C(=O)OCc2nc3ccccc3s2)c(C)o1 returned H5N1 antiviral 1.0.
Cc1cccc(NC(=S)NC2CC3CCC(C2)N3Cc2ccco2)c1C (stereo not drawn) was read as H5N1 antiviral inactive.
Cc1cc(C)nc(N(C#N)CCOc2ccccc2)n1 was read as H5N1 antiviral 1.8.
For CCOC(=O)CNC(=O)c1ccc2[nH]c3c(c2c1)CCCC3 the results were H5N1 antiviral 1.2.
For CCOC(=O)C1CCCN(C(=O)Nc2cccc(Cl)c2)C1 (stereo not drawn) the results were H5N1 antiviral inactive.
For CCOC(=O)C1=Nc2ccccc2C1=[N+]=[N-] the results were H5N1 antiviral 1.0.
`O=C1c2ccccc2C(=O)N1CCn1c(=O)oc2ccccc21` gave H5N1 antiviral inactive.
Cc1ccc(S(=O)(=O)NCCNC(=O)c2ccccc2)cc1 was read as H5N1 antiviral 1.6.
`COC(=O)c1c(NC(=O)c2ccccc2)sc2c1CC(C)(C)OC2` gave H5N1 antiviral inactive.
For Cn1c2c(c(=O)n(C)c1=O)C(C(F)(F)F)(C(F)(F)F)N=C(c1ccccc1Cl)N2 the results were H5N1 antiviral inactive.
For CCCSc1nn2c(=O)c3ccccc3nc2s1 the results were H5N1 antiviral 2.5.
CCCCN(CC)C(=O)c1cc2cc3ccc(OC)cc3nc2o1 was read as H5N1 antiviral inactive.
Cc1ccc(C(=O)NCCc2csc(-c3cccnc3)n2)cc1 was read as H5N1 antiviral 4.7.
COc1ccc(C(=O)Nc2ccc(S(=O)(=O)NC(C)C)cc2)cc1 was read as H5N1 antiviral inactive.
`O=C(CSc1nnc(C2CC2)n1-c1ccccc1)NCCc1ccc(F)cc1` gave H5N1 antiviral 1.9.
For O=C(C1CCCN(S(=O)(=O)c2cccc3nsnc23)C1)N1CCc2ccccc21 (stereo not drawn) the results were H5N1 antiviral 0.5.
`O=C(Cn1nnc(-c2ccc(CN3CCOCC3)cc2)n1)N1CCCc2ccccc21` gave H5N1 antiviral inactive.
`Cc1ccc(OCCNS(=O)(=O)c2cccs2)cc1` gave H5N1 antiviral 1.6.
For c1ccc(Cn2nnnc2CN2CCCC2)cc1 the results were H5N1 antiviral inactive.
`COc1ccc(CC(=O)Nc2ccc(-c3nnc(-c4ccc(C)cc4)o3)cc2)cc1` gave H5N1 antiviral 0.1.
Screening COc1ccc(C(=O)Nc2cccc(C)c2)cc1S(=O)(=O)N1CCOCC1 returned H5N1 antiviral 0.7.
Screening N#Cc1c(N)n(CCOC(=O)c2cccc([N+](=O)[O-])c2)c2nc3ccccc3nc12 returned H5N1 antiviral 0.4.
`CCOc1ccc(C(=O)NC2CCN(S(=O)(=O)CC)CC2)cc1` gave H5N1 antiviral inactive.
COC(=O)c1c(NC(=O)C2CCC2)sc(C(=O)N(C)C)c1C was read as H5N1 antiviral 5.4.
`COCCCn1c(SCC(=O)Nc2ccc(C(=O)OC)cc2)nc2ccccc2c1=O` gave H5N1 antiviral inactive.
`COc1ccccc1-n1c(-c2cccnc2)n[nH]c1=S` gave H5N1 antiviral inactive.
Screening Cc1nn(-c2ccccc2)c(C)c1NS(=O)(=O)c1ccccc1 returned H5N1 antiviral 3.5.
For CCCCP(=O)(CCCC)Cc1ccccc1 the results were H5N1 antiviral 0.1.
Cc1ccccc1NC(=O)C1CCCN(S(=O)(=O)c2cccc3cccnc23)C1 (stereo not drawn) was read as H5N1 antiviral 4.0.
O=[N+]([O-])c1cc(C(F)(F)F)ccc1NCCNC(=S)Nc1ccc(Cl)cc1 was read as H5N1 antiviral 6.0.
`COc1nc(N(C)S(=O)(=O)c2ccc(C)cc2)nc(C)c1Cl` gave H5N1 antiviral 0.8.
For O=S(=O)(c1ccc(Cl)cc1)N1CCSC1c1ccco1 (stereo not drawn) the results were H5N1 antiviral inactive.
CCOC(=O)c1cccc(NC(=O)C2CCCN2S(=O)(=O)c2cccc3cccnc23)c1 (stereo not drawn) was read as H5N1 antiviral 0.2.
COc1ccc(-c2nc(C#N)c(NCc3ccc(F)cc3)o2)cc1OC was read as H5N1 antiviral inactive.
For C=CCN1C(=O)C(O)(CC(=O)c2ccccc2)c2ccccc21 (stereo not drawn) the results were H5N1 antiviral inactive.
For CC(C)(C)NC(=O)C(c1ccco1)N(C(=O)c1csnn1)c1ccccc1 (stereo not drawn) the results were H5N1 antiviral 0.6.
`COc1cc(C2Nc3ccc4ncccc4c3C3=C2C(=O)CC(C)(C)C3)cc(OC)c1O` (stereo not drawn) gave H5N1 antiviral 3.0.
`O=C(Nc1ccccc1)c1ccc(Cn2cc(C(F)(F)F)ccc2=O)cc1` gave H5N1 antiviral inactive.
Screening CC(C)(C)c1ccc(S(=O)(=O)NCC(=O)Nc2sc3c(c2C(N)=O)CCCC3)cc1 returned H5N1 antiviral inactive.
For O=C(COC(=O)CN1C(=O)c2ccccc2C1=O)Nc1ncc(Cl)cc1Cl the results were H5N1 antiviral 0.8.
For COC(=O)NNC(=O)c1ccc(C)cc1 the results were H5N1 antiviral 1.5.

Random excerpt: 3 records from the list.
CCCc1nc2ccccc2n1CCOC was read as H5N1 antiviral 0.7.
For CC(C)(C)NC(=O)C(c1ccco1)N(C(=O)c1csnn1)c1ccccc1 (stereo not drawn) the results were H5N1 antiviral 0.6.
Cc1ccccc1NC(=O)C1CCCN(S(=O)(=O)c2cccc3cccnc23)C1 (stereo not drawn) was read as H5N1 antiviral 4.0.

Other entries.
`CS(=O)(=O)N(CC(=O)N1CCN(c2ccccc2F)CC1)c1cc(C(F)(F)F)ccc1Cl` gave H5N1 antiviral 1.3.
Screening CC1(CC(=O)O)SC(=O)NC1=O (stereo not drawn) returned H5N1 antiviral 0.7.
For Cc1ccc2c(c1)-c1cc(C)nn1C(c1sccc1C)N2 (stereo not drawn) the results were H5N1 antiviral inactive.
Screening Cc1ccc(-n2c(SCC(=O)NCc3ccco3)nc3sc(C)c(C)c3c2=O)cc1 returned H5N1 antiviral inactive.
`Nc1nnc(SCCOc2ccccc2)s1` gave H5N1 antiviral inactive.
Screening CCN(CCCCN1C(=O)c2ccccc2C1=O)c1ccc2c(c1)C(=O)N(C)C2=O returned H5N1 antiviral inactive.
For COc1ccc(NC(=O)c2ccc(CN(c3cc(Cl)ccc3C)S(=O)(=O)c3ccccc3)cc2)cc1OC the results were H5N1 antiviral 0.2.
COc1ccc(/C=C(/C(=O)Nc2ccccc2C(=O)NC(C)C)c2ccccc2)cc1 was read as H5N1 antiviral inactive.
`O=C(c1ccc(F)cc1)c1c[nH]c(C(=O)NCc2cccnc2)c1` gave H5N1 antiviral 0.5.
For CCCCCSc1nnc2c(n1)OC(c1cccn1C)N(C(C)=O)c1ccccc1-2 (stereo not drawn) the results were H5N1 antiviral inactive.
Screening CCN(Cc1ccccc1)C(=O)CCCOc1ccccc1 returned H5N1 antiviral 1.2.
Screening CCOC(=O)c1sc2nc(SC)nc(-c3ccccc3)c2c1N returned H5N1 antiviral inactive.
For Cn1cccc1Cc1nnc(SCC(=O)N2CCCCCC2)n1CCc1ccccc1 the results were H5N1 antiviral inactive.
For CC12CCC(C(=O)N3CCN(Cc4ccccc4)CC3)(OC1=O)C2(C)C (stereo not drawn) the results were H5N1 antiviral 0.8.
Screening Cc1ccc2c(c1)sc1nc(=O)n(-c3ccc(Cl)c(Cl)c3)c(=O)n12 returned H5N1 antiviral inactive.
Screening Cc1ccc(-c2n[nH]c(=S)n2/N=C/c2ccc(C)s2)cc1 returned H5N1 antiviral 0.8.
Screening O=C1CCCc2c1sc1nc3n(c(=O)c21)CCCCC3 returned H5N1 antiviral 0.9.
For O=C(NCc1ccco1)c1cnccn1 the results were H5N1 antiviral 0.1.
For COc1ccc(Cl)cc1NC(=O)CSc1nc(N2CCCCC2)nc(N2CCCCC2)n1 the results were H5N1 antiviral 3.3.
Screening Cc1c(C(=O)Nc2ccc3oc(-c4cccnc4)nc3c2)oc2ccccc12 returned H5N1 antiviral 0.4.
For N#Cc1ccccc1OCC(=O)NC(N)=O the results were H5N1 antiviral 0.1.
COc1ccc2nc(CC(C)(C)CC(=O)O)c[n+]([O-])c2c1 was read as H5N1 antiviral inactive.
`CN(Cc1cccs1)C(=O)CCc1ccc(S(=O)(=O)N2CCOCC2)cc1` gave H5N1 antiviral 1.0.
`CCN(CC)C(=O)CSc1nc2ccccc2c(=O)[nH]1` gave H5N1 antiviral 0.4.
`CCCCCn1c(NCc2ccco2)nc2ccccc21` gave H5N1 antiviral inactive.
`COc1ccc(S(=O)(=O)NC2CCCC2)c(Cl)c1Cl` gave H5N1 antiviral 0.3.
S=C1N(c2ccccc2)C(c2ccc(Cl)cc2)N2CCCN12 (stereo not drawn) was read as H5N1 antiviral 1.9.
`CC12CN3CC(=O)N4CC5(C)CN(CC(C)(C4)C5=O)C(=O)CN(C1)CC(C)(C3)C2=O` gave H5N1 antiviral 0.3.
Screening CCC(C)NC(=O)c1cn(CC)c2ccc(S(=O)(=O)N(C)C)cc2c1=O (stereo not drawn) returned H5N1 antiviral inactive.
Cc1cc(=O)[nH]c(SCC2(O)C3CC4CC(C3)CC2C4)n1 (stereo not drawn) was read as H5N1 antiviral 0.1.

Compound activity (PubChem BioAssay)
